c-Myc SMM: binders of human c-Myc; 1.5% of 17,000 active; small molecule microarray, His-c-Myc binding, anti-His fluorescence; calls only; P01106;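 active = spot fluorescence over background with P-value below 7% in all four replicate spots, showing protein binding; compounds were printed on slides so no solution concentration is given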;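 also: score is binary with 100 for all four spots passing and 0 otherwise; about 2 pmol printed per array spot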
ID4 binder: ID4 (human) binding. P47928. small molecule microarray, Flag-ID4 binding, fluorescence F/B. calls only. 1.2% of 31,000 active. AID 624137;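 active = spot signal over background at p below 0.07 in all four prints; compounds were printed on slides so no solution concentration is given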;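 also: a binder raises fluorescence above local background on the spot; about 2 pmol printed per array spot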
Target sequence (P47928 whole entry, looked up): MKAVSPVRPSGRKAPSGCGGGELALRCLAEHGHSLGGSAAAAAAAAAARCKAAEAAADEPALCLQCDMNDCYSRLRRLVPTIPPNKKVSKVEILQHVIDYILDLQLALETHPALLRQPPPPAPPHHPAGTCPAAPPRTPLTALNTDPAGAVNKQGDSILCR
STAT3 SMM: STAT3 (human) binding. P40763. Small molecule microarray, His-STAT3 binding, anti-His fluorescence. calls only. 0.2% of 17,000 active. AID 624138;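 active = compounds whose four printed spots each show fluorescence over background unusually high for their array block, chance value under 7%; compounds were printed on slides so no solution concentration is given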;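 also: about 2 pmol printed per array spot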
Target sequence (P40763 whole entry, looked up): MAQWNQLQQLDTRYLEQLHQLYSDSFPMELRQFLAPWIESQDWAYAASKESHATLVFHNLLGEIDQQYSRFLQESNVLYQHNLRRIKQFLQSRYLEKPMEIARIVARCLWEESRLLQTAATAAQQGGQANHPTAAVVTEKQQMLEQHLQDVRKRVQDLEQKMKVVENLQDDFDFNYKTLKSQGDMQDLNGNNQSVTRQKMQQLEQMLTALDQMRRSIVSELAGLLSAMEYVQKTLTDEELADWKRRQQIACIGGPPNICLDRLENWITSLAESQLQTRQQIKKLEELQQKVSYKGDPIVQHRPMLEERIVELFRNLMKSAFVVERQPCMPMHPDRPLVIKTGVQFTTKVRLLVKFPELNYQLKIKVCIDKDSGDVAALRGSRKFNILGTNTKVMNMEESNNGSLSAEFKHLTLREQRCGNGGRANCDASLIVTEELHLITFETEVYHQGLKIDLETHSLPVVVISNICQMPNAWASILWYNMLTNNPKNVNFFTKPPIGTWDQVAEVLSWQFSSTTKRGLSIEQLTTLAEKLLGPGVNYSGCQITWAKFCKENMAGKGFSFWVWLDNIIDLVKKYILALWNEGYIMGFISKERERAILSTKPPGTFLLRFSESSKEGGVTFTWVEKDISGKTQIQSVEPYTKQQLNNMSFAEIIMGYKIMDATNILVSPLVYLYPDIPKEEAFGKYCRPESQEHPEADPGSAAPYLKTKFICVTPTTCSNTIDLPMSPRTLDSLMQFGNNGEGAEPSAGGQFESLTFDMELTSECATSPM
p53 mut binder: binders of human mutant p53. small molecule microarray binding, anti-GST fluorescence. calls only. 0.4% of 17,000 active. AID 624136;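 active = compounds whose four printed spots each glow above background more than chance allows, each with a p-value under 7%; compounds were printed on slides so no solution concentration is given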;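 also: about 2 pmol printed per array spot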
Calls only; i = inactive; . = no result given; + = active, no number. Not all compounds are listed; count on the stated rates, not on these rows.

Screens in order – c-Myc SMM, ID4 binder, STAT3 SMM, p53 mut binder
- O=C(CSc1nc2ccccc2s1)Nc1ccc(N2CCOCC2)c(Cl)c1
 : i, i, i, i
- C[C@H]1CN([C@@H](C)CO)C(=O)c2cccc(NC(=O)NC3CCCCC3)c2O[C@@H]1CN(C)C(=O)Nc1ccc(F)cc1
 : i, i, i, i
- Cc1noc(C)c1NC(=O)N(C)C[C@@H]1Oc2ccc(NC(=O)Nc3ccc4c(c3)OCO4)cc2CC(=O)N([C@H](C)CO)C[C@H]1C
 : i, i, i, i
- Cc1noc(C)c1S(=O)(=O)Nc1ccc2c(c1)C(=O)N([C@@H](C)CO)C[C@@H](C)[C@@H](CN(C)C(=O)CCC(F)(F)F)OCCCC[C@H](C)O2
 : i, i, i, i
- CN(CC(O)Cn1c2ccccc2c2ccccc21)S(C)(=O)=O (stereo not drawn)
 : i, i, i, i
- Cc1cc(I)ccc1NC(=O)CN(c1c(C)cccc1C)S(C)(=O)=O
 : i, i, i, i
- C[C@@H]1CCCCO[C@H](CN(C)S(=O)(=O)c2ccc(Cl)cc2)[C@@H](C)CN([C@@H](C)CO)C(=O)c2cc(NS(=O)(=O)c3ccc(Cl)cc3)ccc2O1
 : i, ., i, i
- COc1ccc(CN(C)C[C@@H]2Oc3c(NC(=O)c4ccncc4)cccc3C(=O)N([C@@H](C)CO)C[C@H]2C)cc1
 : i, i, i, i
- Cn1nnnc1SCCNCc1ccncc1
 : i, i, i, i
- NC(=O)OCC(O)COc1ccc(Cl)cc1 (stereo not drawn)
 : i, i, i, i
- CC(=O)Nc1ccc(OCC(O)CNC2CCCC2)cc1 (stereo not drawn)
 : i, i, i, i
- CC1(C)CC[C@]2(C(=O)O[C@@H]3O[C@H](CO)[C@@H](O)[C@H](O)[C@H]3O)CC[C@]3(C)C(=CCC4[C@@]5(C)CC[C@H](O[C@@H]6O[C@H](C(=O)O)[C@@H](O[C@@H]7OC[C@H](O)[C@H](O)[C@H]7O)[C@H](O)[C@H]6O)C(C)(C)C5CC[C@]43C)C2C1 (stereo partly drawn)
 : i, i, i, i
- C[C@@H]1CN([C@@H](C)CO)C(=O)c2cc(NS(C)(=O)=O)ccc2O[C@@H](C)CCCCO[C@@H]1CN(C)S(=O)(=O)c1cccs1
 : i, i, i, i
- CC(C)c1cc2c(cc1O)[C@@]1(C(=O)O)CCCC(C)(C)C1CC2 (stereo partly drawn)
 : i, i, i, i
- C[C@@H]1CN([C@H](C)CO)C(=O)Cc2cc(NS(C)(=O)=O)ccc2O[C@@H]1CN(C)S(=O)(=O)c1cccs1
 : i, i, i, i

Compound profiles, as listed above:
Record of C[C@@H]1CCCCO[C@H](CN(C)S(=O)(=O)c2ccc(Cl)cc2)[C@@H](C)CN([C@@H](C)CO)C(=O)c2cc(NS(=O)(=O)c3ccc(Cl)cc3)ccc2O1 → c-Myc SMM: i; ID4 binder: .; STAT3 SMM: i; p53 mut binder: i
Record of Cn1nnnc1SCCNCc1ccncc1 → c-Myc SMM: i; ID4 binder: i; STAT3 SMM: i; p53 mut binder: i

Carrying on.
Screens in order – c-Myc SMM, ID4 binder, STAT3 SMM, p53 mut binder
- COc1cc(Cl)c(C)cc1NC(=O)C(CC(C)C)N1C(=O)c2ccccc2C1=O (stereo not drawn)
 : i, i, i, i
- Cc1noc(C)c1NC(=O)Nc1cccc2c1O[C@@H](CN(C)C(=O)Nc1c(C)noc1C)[C@H](C)CN([C@@H](C)CO)C2=O
 : i, i, i, i
- CCN(CC)CC(O)Cn1c(C)c(-c2ccccc2)c2cc([N+](=O)[O-])ccc21 (stereo not drawn)
 : i, i, i, i
- C[C@@H]1CN([C@H](C)CO)C(=O)CCCn2nncc2CO[C@H]1CN(C)Cc1ccccc1
 : i, i, i, i
- C[C@H](CO)N1C[C@H](C)[C@H](CN(C)Cc2ccncc2)Oc2ncc(C#Cc3ccc(C(F)(F)F)cc3)cc2C1=O
 : i, i, i, i
- C[C@H]1CN([C@@H](C)CO)C(=O)c2cc(NS(C)(=O)=O)ccc2O[C@H]1CN(C)S(=O)(=O)c1ccc(Cl)cc1
 : i, ., i, i
- CNC[C@H]1Oc2ccc(NC(=O)C3CC3)cc2C(=O)N([C@H](C)CO)C[C@H]1C
 : i, i, i, i
- C[C@@H]1CN([C@@H](C)CO)C(=O)Cc2cc(NS(=O)(=O)c3ccccc3)ccc2O[C@H]1CN(C)C(=O)Nc1ccc2c(c1)OCO2
 : i, i, i, i
- Cc1noc(C)c1NC(=O)N(C)C[C@@H]1Oc2ccc(NC(=O)CCN3CCOCC3)cc2CC(=O)N([C@@H](C)CO)C[C@@H]1C
 : i, i, i, i
- COc1ccc(S(=O)(=O)Nc2ccc3c(c2)C(=O)N([C@H](C)CO)C[C@H](C)[C@H](CN(C)C(=O)CCCN(C)C)OCCCC[C@@H](C)O3)cc1
 : i, ., i, i
- COc1ccc(NC(=O)CSc2nc3ccccc3o2)c([N+](=O)[O-])c1
 : i, i, i, i
- CO[C@H]1C=C[C@@](C)(O)/C=C/C(=O)O[C@H](C)[C@@H](C)CC/C=C\1C
 : i, ., i, i
- COc1ccc(-c2csc3ncn(CC(=O)Nc4sc5c(c4C#N)CCC5)c(=O)c23)cc1OC
 : i, +, i, i
- C[C@@H]1CN([C@H](C)CO)C(=O)c2cc(NC(=O)NC3CCCCC3)ccc2O[C@H]1CN(C)C(=O)Nc1ccc(C(F)(F)F)cc1
 : i, i, i, i
- COc1ccc(S(=O)(=O)Nc2cccc3c2O[C@H](CN(C)Cc2ccc(-c4ccccc4)cc2)[C@H](C)CN([C@@H](C)CO)C3=O)cc1
 : i, ., i, i

Molecules from the list above containing a nitro group on carbon, in the order listed:
Screens in order – c-Myc SMM, ID4 binder, STAT3 SMM, p53 mut binder
- CCN(CC)CC(O)Cn1c(C)c(-c2ccccc2)c2cc([N+](=O)[O-])ccc21 (stereo not drawn)
 : i, i, i, i
- COc1ccc(NC(=O)CSc2nc3ccccc3o2)c([N+](=O)[O-])c1
 : i, i, i, i

Additional compounds.
Screens in order – c-Myc SMM, ID4 binder, STAT3 SMM, p53 mut binder
- CNC[C@@H]1Oc2ccc(NC(=O)CCCN(C)C)cc2C(=O)N([C@H](C)CO)C[C@H]1C
 : i, i, i, i
- COc1ccc(C2OCC3C2CO[C@H]3c2ccc(OC)c(OC)c2)cc1OC (stereo partly drawn)
 : i, i, i, i
- C[C@@H]1CN([C@H](C)CO)C(=O)Cc2cc(NC(=O)Nc3ccc4c(c3)OCO4)ccc2O[C@H]1CN(C)C(=O)Nc1ccc2c(c1)OCO2
 : i, i, i, i
- O=C(O)CC(C(=O)Nc1ccc(Cl)cc1)N1CCCC1 (stereo not drawn)
 : i, i, i, i
- CCn1c(SCC(N)=O)nnc1-c1sc2cc(Cl)ccc2c1Cl
 : i, i, i, i
- C=CCNC(=O)[C@@H]1[C@H]2C(=O)O[C@H](c3ccccc3)[C@H](c3ccccc3)N2[C@H](c2ccccc2OCCO)[C@@]12C(=O)Nc1ccc(C#CC3=CCCCC3)cc12
 : i, i, i, i
- C[C@@H]1CN([C@H](C)CO)C(=O)c2cc(N(C)C)ccc2O[C@H]1CN(C)C(=O)NC1CCCCC1
 : i, i, i, i
- Cc1ccc(S(=O)(=O)Nc2ccc(Br)cc2CNc2nc3ccccc3n2C)cc1
 : i, i, i, i
- C[C@H](CO)N1C[C@H](C)[C@@H](CN(C)Cc2ccc(C(=O)Nc3ccccc3N)cc2)OCc2cn(nn2)CCCC1=O
 : i, ., i, i
- C[C@H]1CN([C@@H](C)CO)C(=O)CCCn2cc(nn2)CO[C@@H]1CN(C)C(=O)c1ccccc1
 : i, i, i, i
- O=C(C1CCCO1)N1CCN(C(=S)Nc2ccc(S(=O)(=O)Nc3ncccn3)cc2)CC1 (stereo not drawn)
 : i, i, i, i
- COc1ccc(S(=O)(=O)N(C)C[C@@H]2Oc3ccc(NC(=O)Nc4cccc5ccccc45)cc3CC(=O)N([C@@H](C)CO)C[C@H]2C)cc1
 : i, i, i, i
- O=S(=O)(N[C@@H]1CCCN(Cc2ccc(OCCO)cc2)C1)c1ccc2ccccc2c1
 : i, i, i, i
- O=C(CCn1cnc2ccccc2c1=O)Nc1ccccc1F
 : i, i, i, i
- Cc1noc(C)c1S(=O)(=O)N(C)C[C@@H]1Oc2ccc(NC(=O)C3CCCCC3)cc2CC(=O)N([C@H](C)CO)C[C@@H]1C
 : i, i, i, i
- Cc1ccc2cccc(OCC(=O)Nc3ccc(C)c([N+](=O)[O-])c3)c2n1
 : i, i, i, i
- C[C@H](CO)N1C[C@H](C)[C@H](CN(C)CC2CC2)Oc2c(NS(C)(=O)=O)cccc2C1=O
 : i, i, i, i
- C[C@H](CO)N1C[C@H](C)[C@H](CN(C)Cc2ccccc2)Oc2c(NC(=O)C3CCOCC3)cccc2C1=O
 : i, i, i, i
- C[C@@H]1CCCCO[C@@H](CN(C)C(=O)CCCN(C)C)[C@@H](C)CN([C@H](C)CO)C(=O)c2cc(NS(=O)(=O)c3ccccc3)ccc2O1
 : i, +, i, i
- CCOc1ccc(C(=O)c2oc3ccccc3c2NC(=O)c2cc(OC)c(OC)c(OC)c2)cc1
 : i, i, i, i
- CCOC(=O)C1=C(C)NC(=S)NC1c1cc(I)c(OCC#N)c(OC)c1 (stereo not drawn)
 : i, i, i, i
- Cn1c(=O)/c(=C/c2ccccc2)n(C)c(=O)/c1=C/c1ccccc1
 : i, ., i, i
- C[C@@H]1CCCCO[C@@H](CN(C)S(=O)(=O)c2ccccc2)[C@H](C)CN([C@@H](C)CO)C(=O)c2cc(NS(=O)(=O)c3ccc(F)cc3)ccc2O1
 : i, ., i, i
- Nc1c(Br)cc(Br)cc1CNC1CCC(O)CC1 (stereo not drawn)
 : i, i, i, i
- Cc1noc(C)c1NC(=O)Nc1ccc2c(c1)CC(=O)N([C@@H](C)CO)C[C@@H](C)[C@@H](CN(C)S(=O)(=O)c1ccccc1)O2
 : i, i, i, i
- Cc1noc(C)c1S(=O)(=O)N(C)C[C@H]1Oc2ccc(NC(=O)Nc3ccc(C(F)(F)F)cc3)cc2CC(=O)N([C@H](C)CO)C[C@@H]1C
 : i, ., i, i
- COc1ccc(NC(=O)Nc2cccc3c2O[C@H](CN(C)C(=O)Nc2ccccc2)[C@H](C)CN([C@@H](C)CO)C3=O)cc1
 : i, i, i, i
- COc1ccc(S(=O)(=O)N(C)C[C@H]2Oc3ccc(NC(=O)Nc4ccc5c(c4)OCO5)cc3CC(=O)N([C@@H](C)CO)C[C@@H]2C)cc1
 : i, i, i, i
- COc1cc2c(cc1OC)[C@H]1[C@@H](C)c3ccc(OC)c(OC)c3CN1CC2
 : i, ., i, i
- COc1ccc([Si](C)(C)[C@H]2[C@H](CCn3cc(CCO)nn3)O[C@@]3(C(=O)N(Cc4ccc(N5CCC5=O)cc4)c4ccccc43)[C@@H]2C)cc1
 : i, i, i, i
- C[C@@H]1CCCCO[C@H](CN(C)Cc2ccc(C(=O)O)cc2)[C@H](C)CN([C@H](C)CO)C(=O)c2cc(NC(=O)Nc3ccc(F)cc3)ccc2O1
 : i, i, i, i
- Cc1noc(C)c1NC(=O)N(C)C[C@H]1Oc2ccc(N(C)C)cc2CC(=O)N([C@H](C)CO)C[C@H]1C
 : i, i, i, i
- O=C(C1=C[C@H](c2csc3ccccc23)C[C@H](OCCCCO)O1)N1CCOCC1
 : i, i, i, i
- COc1ccc(OCCNc2c([N+](=O)[O-])c(=O)oc3ccccc23)cc1
 : i, i, i, i
- C/C=C(/C)C(=O)OC1C(OC(C)=O)c2c(ccc3ccc(=O)oc23)OC1(C)C (stereo not drawn)
 : i, i, i, i
- CC(=O)Nc1ccc(NC(=O)CN(c2ccccc2Br)S(C)(=O)=O)cc1
 : i, i, i, i
- CSc1cccc(NC(=O)C(C)NS(=O)(=O)c2ccccc2)c1 (stereo not drawn)
 : i, i, i, i
- Cc1noc(C)c1NC(=O)Nc1cccc2c1O[C@@H](CN(C)S(=O)(=O)c1cccs1)[C@H](C)CN([C@@H](C)CO)C2=O
 : i, i, i, i
- C[C@H]1CN([C@@H](C)CO)C(=O)CCCn2cc(nn2)CO[C@@H]1CN(C)C(=O)c1ccc(N2CCN(C)CC2)cc1
 : i, i, i, i
- O=C1c2ccccc2C(=O)N1CCSc1nnnn1-c1ccccc1
 : i, i, i, i
- O=c1[nH]c2ccccc2c(=O)n1CCCO
 : i, i, i, i
- C[C@@H]1CN([C@@H](C)CO)C(=O)c2cccc(NS(=O)(=O)c3cn(C)cn3)c2O[C@@H]1CN(C)Cc1ccc(Cl)c(Cl)c1
 : i, i, i, i
- COc1ccc(S(=O)(=O)Nc2ccc3c(c2)CC(=O)N([C@@H](C)CO)C[C@@H](C)[C@H](CN(C)C)O3)cc1
 : i, i, i, i
- COc1cc(C)c(C(=O)Oc2cc(C)c(C(=O)Oc3cc(C)c(C(=O)NC(C)C(=O)O)c(O)c3)c(O[C@@H]3O[C@H](CO)[C@@H](O)[C@H](O)[C@H]3OC(C)=O)c2)c(O)c1 (stereo partly drawn)
 : i, ., i, i
- C[C@@H]1CN([C@H](C)CO)C(=O)Cc2cc(NS(=O)(=O)c3cccs3)ccc2O[C@@H]1CN(C)C(=O)Nc1ccc2c(c1)OCO2
 : i, i, i, i
- C[C@H]1CN([C@@H](C)CO)C(=O)Cc2cc(NC(=O)CCN3CCOCC3)ccc2O[C@@H]1CN(C)Cc1ccc(-c2ccccc2)cc1
 : i, i, i, i
- C[C@@H]1CN([C@@H](C)CO)C(=O)c2cc(NC(=O)C3CC3)ccc2O[C@@H]1CN(C)S(=O)(=O)c1cn(C)cn1
 : i, i, i, i

High-throughput results: PubChem BioAssay, Broad Institute
